KCNQ2 inh: KCNQ2 potassium channel inhibitors, primary screen, cell-based, CHO-K1, FluxOR thallium flux, B-score (AID 2156); B-score at 10 µM; 20 min; stronger effect = lower value; only compounds with negative scores are shown here; some inactives read as strong as hits; 1.1% of 310,000 active;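 active = fluorescence ratio B-score at most minus 3 library SDs, with starting brightness B-score within 2 library SDs, cut at about -5.5 in these data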
Target sequence (O88943 whole entry, looked up): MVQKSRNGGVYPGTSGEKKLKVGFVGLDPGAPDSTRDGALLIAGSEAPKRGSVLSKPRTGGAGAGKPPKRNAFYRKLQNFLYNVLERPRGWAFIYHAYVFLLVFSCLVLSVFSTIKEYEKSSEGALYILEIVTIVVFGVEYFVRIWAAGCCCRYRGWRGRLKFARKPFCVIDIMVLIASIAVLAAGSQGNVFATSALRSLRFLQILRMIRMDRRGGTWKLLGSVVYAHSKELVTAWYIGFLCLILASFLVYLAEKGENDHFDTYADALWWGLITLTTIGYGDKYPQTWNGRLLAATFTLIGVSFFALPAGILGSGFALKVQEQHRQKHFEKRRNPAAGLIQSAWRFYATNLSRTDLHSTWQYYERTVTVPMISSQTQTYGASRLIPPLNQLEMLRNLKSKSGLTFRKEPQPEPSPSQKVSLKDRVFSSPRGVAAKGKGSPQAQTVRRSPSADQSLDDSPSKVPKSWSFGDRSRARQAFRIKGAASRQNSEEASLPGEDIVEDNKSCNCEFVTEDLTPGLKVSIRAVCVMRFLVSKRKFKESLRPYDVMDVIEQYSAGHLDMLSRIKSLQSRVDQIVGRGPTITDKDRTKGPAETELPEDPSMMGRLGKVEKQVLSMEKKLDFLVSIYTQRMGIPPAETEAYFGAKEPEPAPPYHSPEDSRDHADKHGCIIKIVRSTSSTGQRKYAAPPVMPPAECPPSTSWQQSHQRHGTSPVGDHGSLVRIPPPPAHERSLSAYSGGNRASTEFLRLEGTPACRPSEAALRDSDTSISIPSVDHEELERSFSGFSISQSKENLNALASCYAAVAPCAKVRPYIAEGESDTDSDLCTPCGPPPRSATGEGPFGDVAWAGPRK
KCNQ2 inh baseline: also measured in KCNQ2 inh; calls as there; B-score; measured here: initial fluorescence intensity artifact check;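 brightness before thallium and not channel activity; 0 = typical well and far values either way flag optical interference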
* hit, by the source's call; i = inactive.

SMILES	KCNQ2 inh	KCNQ2 inh baseline
CCCOc1ccc(C(=O)NNC(=O)CCNC(=O)c2ccco2)cc1OC	i	2.48
COc1cccc(/C=C(\C#N)C(=O)NC2CCS(=O)(=O)C2)c1 (configuration not stated)	i	1.73
CCN(CC(=O)NCc1ccc(Cl)cc1)C(=O)CSCC(=O)Nc1cccc(C)c1	i	-1.02
NNC(=O)c1nc(-c2cccc(-n3cccc3)c2)no1	i	0.89
COc1ccc(-c2nn(-c3ccccc3)cc2/C=N/N2C(=O)CSC2=S)cc1	i	-1.65
Cc1nc(CSc2ccc(Cl)cc2)cc(N2CCOCC2)n1	i	0.25
CC1CCCCN1S(=O)(=O)c1cccc(S(=O)(=O)N2CCOCC2)c1 (configuration not stated)	i	-1.91
COCC(=O)Nc1ccc(C(N)=O)cc1	i	1.19
CC(C)C[C@H](NC(=O)c1nc[nH]c1C(=O)N(C)Cc1ccccc1)C(=O)OC(C)(C)C	i	-2.45
O=C1CCCC2=C1C(c1cccc(Br)c1)n1nc(-c3ccco3)nc1N2 (configuration not stated)	i	-1.98
CN(C)S(=O)(=O)c1ccc(NC(=O)COc2ncnc3sccc23)cc1	i	-0.06
COc1ccccc1NCC(=O)n1nc(C)cc1C	i	-0.02
O=C(c1ccc2c3c(cccc13)CC2)C1CCCN(Cc2ccc(OCCO)cc2)C1 (configuration not stated)	i	-0.93
CCCCN(c1nc2ccccc2nc1Cl)S(=O)(=O)c1ccc(C)cc1	i	0.01
Cc1c(C(=O)N2CCC(C)CC2)sc2ncn(CC(=O)N3CCC(C)CC3)c(=O)c12	i	0.54
Cc1[nH]c2ccccc2c1/C=N/NC(=O)CNC(=O)c1ccc2c(c1)OCO2	i	-0.06
O=[N+]([O-])c1nn(-c2ccccc2)n(O)c1=NC1CCN(Cc2ccccc2)CC1	i	-0.44
c1ccc(CCc2ccccc2-c2nc(-c3cccnc3)no2)cc1	i	-1.15
Cc1ccccc1C(=O)NCC(=O)NNC(=S)NC(=O)c1ccccc1C	i	-1.01
C[N+](C)(C)CCCNC(=O)c1ccc(/C=N/O)nc1	i	0.31
COc1ccccc1CCN=C(N)NS(=O)(=O)c1ccc(C)cc1	i	2.68
N#CC1(NC(=O)CSc2nc3ncc(Cl)cc3[nH]2)CCCCC1	i	4.75
O=C(NC1CCCCC1)C(c1ccncc1)N(Cc1ccc2c(c1)OCO2)C(=O)c1cnsn1 (configuration not stated)	i	0.24
Cc1ccc2nc(-c3cccc(Br)c3)cc(C(=O)NC3=NCCS3)c2c1	-7.28*	-0.68*
OCCN1CCN(C(=S)NC2CCCC2)CC1	i	0.01
Cc1cccc2sc(NC(=O)Cn3cccc3)nc12	i	0.51
O=C(OCC(=O)N1CCN(c2ccccc2)CC1)C1=COCCO1	i	-0.02
O=C(CCCN1C(=O)c2cccc3cccc(c23)C1=O)N1CCN(c2ccccn2)CC1	i	1.19
Cn1cnc2cc(NCc3ccccc3Cl)ccc21	i	-0.18
CCCCNC(=O)/C(C#N)=c1\s/c(=C\c2ccccc2OC(F)F)c(=O)n1CCCOC	i	0.03
Cc1c(C(=O)NCc2n[nH]c(=S)n2-c2ccc(F)cc2)cccc1[N+](=O)[O-]	i	1.13
COc1cc(F)ccc1CN1CCC(n2nccc2NC(=O)C2CCOC2)CC1 (configuration not stated)	i	-1
Cc1c(NP(=O)(Oc2ccccc2F)Oc2ccccc2F)c(=O)n(-c2ccccc2)n1C	i	-0.42
Nn1c(-c2ccccn2)nnc1-c1ccccn1	i	0.61
COc1ccccc1OCCNC(=O)c1cc(=O)[nH]c2ccccc12	i	-0.15
CCOc1ccc(OCC)c(S(=O)(=O)n2cnc(C)c2)c1	i	0.11
COc1ccc(N(/N=C2\Sc3ccccc3C2=O)C(C)=O)cc1	i	-0.71
O=c1c2ccccc2nc(SCc2nnc(-c3ccccc3)o2)n1-c1ccc(F)cc1F	-6.43*	-1.15*
O=[N+]([O-])c1ccc(-c2nc(-c3cccs3)c(-c3cccs3)[nH]2)cc1	i	1.64
Cc1ccc(N2C(=O)CC(NCc3ccc4c(c3)OCO4)C2=O)cc1Cl (configuration not stated)	i	-1.59

As entered above.
Under KCNQ2 inh baseline, Nn1c(-c2ccccn2)nnc1-c1ccccn1 has 0.61
Under KCNQ2 inh baseline, COc1cccc(/C=C(\C#N)C(=O)NC2CCS(=O)(=O)C2)c1 (configuration not stated) has 1.73

A different layout for some results above:
KCNQ2 inh	KCNQ2 inh baseline	canonical_smiles
i	0.61	Nn1c(-c2ccccn2)nnc1-c1ccccn1
i	-0.15	COc1ccccc1OCCNC(=O)c1cc(=O)[nH]c2ccccc12
i	0.11	CCOc1ccc(OCC)c(S(=O)(=O)n2cnc(C)c2)c1
i	-0.71	COc1ccc(N(/N=C2\Sc3ccccc3C2=O)C(C)=O)cc1
-6.43*	-1.15*	O=c1c2ccccc2nc(SCc2nnc(-c3ccccc3)o2)n1-c1ccc(F)cc1F
i	1.64	O=[N+]([O-])c1ccc(-c2nc(-c3cccs3)c(-c3cccs3)[nH]2)cc1

Going on with the list.
SMILES	KCNQ2 inh	KCNQ2 inh baseline
CCOC(=O)c1cccc(S(=O)(=O)N(CCO)Cc2cc3cc(OC)ccc3[nH]c2=O)c1	i	-1.54
CCOC(=O)C1=C(N)N(c2ccccc2)C2=C(C(=O)CCC2)C1c1cccnc1 (configuration not stated)	i	-0.88
COC(=O)c1sccc1NC(=S)N1CCN(c2cccc(C)c2C)CC1	i	0.1
CCOC(=O)c1c(NC(=O)C(C)NCc2ccco2)sc2c1CCC(C)C2 (configuration not stated)	i	0.74
N#Cc1ccccc1NC(=O)c1cc(=O)c2ccccc2o1	i	-0.95
CCN(CC)CCNC(=O)c1ccc(NC(=O)c2ccccc2-c2ccc(C(F)(F)F)cc2)cc1	i	-1.13
O=C(CSc1nnnn1-c1ccc(O)cc1)N1N=C(c2ccc3ccccc3c2)CC1c1ccccc1 (configuration not stated)	i	0.57
COc1cccc(NC(=S)NN2C(C)CCCC2C)c1 (configuration not stated)	i	-0.31
O=C(COc1ccc(-c2ccccc2)cc1)N/N=C/c1cc(O)ccc1Br	i	-0.09
Cc1ccc(OCCNC(=O)c2ccc3ccccc3n2)cc1	i	1.39
C/C(=N/NC(=O)c1ccc(Br)o1)c1cccs1	i	1.45
O=C(Cn1c(C(=O)N2CCc3ccccc3C2)cc2sccc21)c1ccccc1	i	-0.54
COc1ccc2c(CC(=O)Nc3ccccc3N3CCOCC3)coc2c1	i	0.01
Cc1cc(CNC(=O)c2cc(Br)ccc2Cl)nn1C	i	0.24
O=C1Cc2cc(S(=O)(=O)Nc3ccccc3Cl)cc3c2N1CCC3	i	-1.1
Cc1nnc(NC2CCCCC2)[nH]c1=O	i	0.94
CCOC(=O)N1CCN(S(=O)(=O)N2CCCC(C(=O)NCCCN3CCCCC3CC)C2)CC1 (configuration not stated)	i	1.08
CC1(C)CC(NC(=O)C(C)(C)Oc2ccc(Cl)cc2)CC(C)(C)N1	i	0.07
Oc1cccc(Nc2c3ccccc3nc3ccccc23)c1	i	-0.72
Cc1ccc(-c2nc3cccnc3s2)cc1NS(=O)(=O)c1ccc2c(c1)CCCC2	-5.98*	-1.18*
Cc1ccc2c(c1)/C(=N/N1C(=O)c3ccccc3C1=O)C(=O)N2	i	0.06
Cc1ccccc1-c1nnc(SCC(=O)N2CCCC2)o1	i	-0.96
O=C(COC(=O)c1ccc(S(=O)(=O)N2CCCCC2)cc1)NCc1ccco1	i	-0.08
CN(C)CCC(=O)c1ccc(Cl)cc1	i	0.94
Cc1csc(Nc2cccc3ccccc23)n1	i	-3.48
O=C(O)Cc1ccc(NC(=O)COc2ccc3ccccc3c2)cc1	i	-0.22
Cc1ccc(NS(=O)(=O)c2cc3[nH]c(=O)c(=O)[nH]c3cc2C)c(C)c1	i	-0.9
CCOC(=O)C(Cc1ccccc1)NC(=O)CNC(=O)CNC(=O)OCc1ccccc1 (configuration not stated)	i	-2.38
CC(Sc1nnc2c(n1)C1(C)CCC2C1(C)C)C(=O)Nc1ccccc1 (configuration not stated)	i	-0.32
C/C(=N\OCc1ccc(C#N)cc1)c1ccccc1	i	-0.13
COc1ccc(Cl)cc1NC(=O)CC(C)c1ccccc1 (configuration not stated)	i	-0.07
COc1ccc(N2C(=O)CCC(C(=O)N3CCCCC3)C2c2ccc(OC)c(OC)c2)cc1 (configuration not stated)	i	0.05
CCN1CCN(S(=O)(=O)Cc2ccccc2Cl)CC1	i	1.59
Cc1nn(-c2ccccc2)c(C)c1C(=O)OCC(=O)N(C)C1CCS(=O)(=O)C1 (configuration not stated)	i	-0.04
Cc1cccc(NC(=O)c2ccccc2C(=O)Nc2cccc(C)c2)c1	i	0.7
COC(=O)c1nnn(CC(=O)NC(=O)Nc2ccccc2F)c1C(=O)OC	i	0.17
O=C(CSCc1ccccc1Br)N/N=C/c1ccccc1C(=O)O	i	1.55
COc1ccc(NC(=O)NC2CCCCCCC2)cc1	i	1.4
COc1ccccc1S(=O)(=O)Nc1ccc(-c2nnc3n2CCCCC3)cc1	i	-0.23
COC(=O)c1ccc(/C=N/NS(=O)(=O)c2cc(C)ccc2C)cc1	i	-0.44
CC(C)CN1C(=O)c2ccc(C(=O)Nc3c[nH]c(=O)[nH]c3=O)cc2C1=O	i	-1.79
CN(Cc1ccc(C(F)(F)F)cc1)C(=O)C1CCC(=O)N(C2CC2)C1 (configuration not stated)	i	-0.17
CCOC(=O)C1=C(C)N=C2SC(C(=O)OC)=CC(=O)N2C1c1ccc(OC)cc1 (configuration not stated)	i	-0.3
c1ccc(Sc2cccc3ccccc23)c(CNC2=NCCN2)c1	i	0.24
CCOC(=O)/C(=C/c1ccc(OC(=O)c2ccccc2)cc1)C(C)=O	i	0.3
Cc1c(/C=N/N2C(=O)C3C4C=CC(C4)C3C2=O)c2ccccc2n1C (configuration not stated)	i	0.19
CCCCC1=CC2=C(c3ccco3)C(=O)C(C)(OC(=O)c3ccc(OC)cc3)C(=O)C2=CN1Cc1ccc2c(c1)OCO2 (configuration not stated)	i	0.63
COc1ccc(-c2cc([C@H]3[C@H]4C=CC[C@@H](C)[C@@H]4C(=O)N3Cc3ccccc3)ccc2F)cc1	i	1.84
COc1ccc(O)c(C(=O)C2c3ccccc3C(=O)N2c2ccc(C)cc2)c1 (configuration not stated)	i	-0.01
Cc1ccc(C)c(NC(=S)NCc2ccc3c(c2)OCO3)c1	i	-0.03
O=C(c1ccccc1)N1CCCN(c2nccc(C(F)(F)F)n2)CC1	i	-0.67
Cc1ccc(NC(=O)CSc2nnc(CNC(=O)c3cccs3)o2)cc1	i	-0.56
Cc1cc(NCCN2CCOCC2)n2nc(C)c(-c3ccc(Cl)cc3)c2n1	i	-0.84
CC(C)[C@H](NC(=O)[C@@H]1Cc2ccccc2CN1C(=O)OC(C)(C)C)C(=O)NCC1CCCO1 (some centres not stated)	i	1.67
O=C(c1cn(-c2ccccc2)nc1-c1ccc(Cl)s1)N1CCOCC1	i	-0.72
C/C(CC(=O)Nc1cccc(Cl)c1Cl)=N\NC(=O)c1ccccc1N	i	-0.26

Continued:
SMILES	KCNQ2 inh	KCNQ2 inh baseline
COc1ccc2cc(C(=O)CS(=O)(=O)c3ccccc3)c(=O)oc2c1	i	-1.62
Cc1ccccc1Nc1nc(N)nc(CN2CCN(C(=O)c3ccccc3)CC2)n1	i	0.12
COCCn1c(SCC(=O)Nc2ccc(C(N)=O)cc2)nc2c([nH]c3ccccc32)c1=O	i	-0.96
CC(=O)c1cc(C#N)c(SCC(=O)C(C)(C)C)nc1C	i	0.37
O=C(c1ccc(Br)cc1)C(CN1CCOCC1)c1ccccc1 (configuration not stated)	i	-2.09
CCCCCCOC(=O)c1ccc(OC(=O)c2cccnc2)cc1	i	0.54
CNc1ccccc1C(=O)OCC(=O)c1ccccc1	i	-1.17
CCCOc1ccc(-c2c(=O)n(OCC(=O)OCC)c3ccccc3[n+]2[O-])cc1	i	0.83
O=C(COC(=O)c1cc(=O)[nH]c2ccccc12)NC(=O)NC1CCCCC1	i	-0.75
Cc1nc2ccc(S(=O)(=O)N(C)CC(=O)N3CCc4ccccc4C3)cc2s1	i	0.02
Cc1ccc(NC(=S)N2C3CCCC2CC(NC(=O)C2CC2)C3)cc1C (configuration not stated)	i	-0.12
CCC(=O)N1N=C(c2c(-c3ccccc3)c3cc(Cl)ccc3[nH]c2=O)CC1c1ccco1 (configuration not stated)	i	2.81
Cc1ccc2c(CSc3nnc(C4CC4)n3N)cc(=O)oc2c1C	i	-0.47
O=C(CN1CCN(c2ccccc2Cl)CC1)NC1CCCc2ccccc21 (configuration not stated)	i	-0.92
COc1cc(-c2nnc(CSc3nnc4nc(C)cc(C)n34)o2)cc(OC)c1OC	i	-0.32
Cc1ccccc1C(=O)NC(=S)Nc1ccc(S(=O)(=O)N(C)c2ccccc2)cc1	i	-0.4
COc1cccc(C(=O)C2CCCN(Cc3cccc(-n4cccn4)c3)C2)c1 (configuration not stated)	i	0.19
COc1cc(NC(=O)c2ccccc2-c2ccccc2)cc(OC)c1OC	i	0.63
COc1cc(S(=O)(=O)NCc2ccccn2)c(OC)cc1Cl	i	-1.33

High-throughput results deposited in PubChem by Johns Hopkins Ion Channel Center.

An excerpt; rates above refer to the full screens.
